Source: PubChem BioAssay
gsp antagonist: qHTS for Antagonists of gsp, the Etiologic Mutation Responsible for Fibrous Dysplasia/McCune-Albright Syndrome: qHTS; AID 624288, 2012; hit rate 0.4% among 340,000; gsp-mutant cells, cAMP HTRF, 30 min; control for the full effect not named in the record; Potency, µM (series often up to 76.9 µM), for inactives: top-dose activity change, negative = inhibition, hits mostly inhibitors; active = falling curve of any shape with a large fitted effect; inconclusive = falling curve, mostly with a smaller effect; inactive = flat or rising curve; cell line not stated here;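 further: intracellular cAMP measured with PDE inhibitor Ro 20-1724 present during compound exposure; potency means the concentration at half of the fitted maximal effect; on the % scale 0 is the no-effect control and ±100 the full control effect; nearly all actives have a fitted effect of over 65% in size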
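Cells in G418 medium, seeded 16-24 h, 37C; buffer exchange to DPBS + 1 mM CaCl2, 0.5 mM MgCl2, 0.05% BSA; cpds in DMSO + […] (300 uM stock), 30 min 37C; HTRF cAMP detection.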
gsp ag: qHTS for Agonist of gsp, the Etiologic Mutation Responsible for Fibrous Dysplasia/McCune-Albright Syndrome: qHTS; gsp mutant cells, cAMP HTRF, 30 min; control for the full effect not named in the record; Potency, µM (highest dose often 76.9 µM), without a hit: at the top dose activation (cAMP increase), usual class: activators; hit rate 0.13% among 340,000; AID 624287, 2012; active = well fitted activation curve with a large enough effect; inconclusive = small, poorly fitted or top-dose-only effect, or another doubt; inactive = no such curve, though single readings can be large or run the other way; cell line not stated here;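 further: phosphodiesterase inhibitor Ro 20-1724 added with compounds to block cAMP breakdown; potency means the concentration at half of the fitted maximal effect; nearly all actives have a fitted effect of over 60% in size; about a fifth of the inactives were tested at one dose only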
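Cells stably selected in G418 were plated at 2000/well, grown 16-24 hr, then given compounds in DMSO with the PDE inhibitor […] (300 uM solution added) for 30 min at 37C; cAMP was read by HTRF.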
D2 potentiator: Beta-Arrestin HTS for Positive Allosteric Modulators of the Human D2 Dopamine Receptor: Potentiators; D(2) dopamine receptor (Homo sapiens), P14416; DiscoveRx D2 beta-arrestin cells, luminescence, 90 min; 100% = 57 uM dopamine signal; potentiation, % (test concentration not listed); hit rate 0.23% among 360,000; active = potentiation of 50% or more; inconclusive = 30% to 50%; inactive = 30% or less;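 further: compound concentration not given in the record; tested on top of an EC20 dose of dopamine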
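PathHunter D2 cells, attached overnight at 37 deg C, received compound in DMSO plus dopamine at EC20 (50 nM final) for 90 min at 37 deg C. Beta-arrestin recruitment was read as luminescence after 1 h with detection reagent at ambient temperature.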
D2 ag: Beta-Arrestin HTS for Positive Allosteric Modulators of the Human D2 Dopamine Receptor: Agonists. D(2) dopamine receptor (Homo sapiens), P14416. DiscoveRx PathHunter D2 beta-arrestin, luminescence, 90 min; 100% = 57 uM dopamine signal. activation, % (no concentration beside the values). hit rate 0.084% among 360,000. AID 624465, 2012; in the data active = activation above about 40%; inconclusive = about 15% to 40%; inactive = below about 15%; further: compound concentration not given in the record; the text of the record calls up to 30% inactive
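Agonist mode: compounds alone added to overnight-plated D2 PathHunter cells for 90 min at 37 C, with 57 uM final dopamine (EC100) defining full response. Beta-arrestin recruitment detected by chemiluminescent reagent, read after 1 h at ambient temperature.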
CtBP-E1A blk: qHTS Assay for Inhibitors of the CtBP/E1A Interaction; CtBP / adenovirus E1A interaction (AlphaScreen); AlphaScreen GST-E1A/His-CtBP binding, 1536-well; active compounds read low; control for the full effect not named in the record; activity change, % (test concentration not listed); hit rate 0.49% among 340,000; AID 651724, 2012; in the data active means activity change below about -65%; inconclusive means about -30% to -65%; inactive means above about -30%; further: on the % scale 0 is the no-effect control and ±100 the full control effect
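Homogeneous bead-based format: GST-tagged E1A captured on glutathione donor beads, His-tagged CtBP on nickel acceptor beads; compounds precede bead addition by 2 h at 37 °C.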
Six1-Eya2 blk: qHTS Assay for Inhibitors of the Six1/Eya2 Interaction; Homeobox protein SIX1 (Homo sapiens) + Protein phosphatase EYA2 (Homo sapiens), …; AlphaScreen GST-Six1/His-Eya2 binding, biochemical; active compounds read low; control for the full effect not named in the record; activity change, % (concentration not given with the values); hit rate 0.56% among 360,000; AID 651725, 2012; in the data active = activity change below about -65%; inconclusive = about -30% to -65%; inactive = above about -30%; further: on the % scale 0 is the no-effect control and ±100 the full control effect
Target sequence (O00167 whole entry, looked up): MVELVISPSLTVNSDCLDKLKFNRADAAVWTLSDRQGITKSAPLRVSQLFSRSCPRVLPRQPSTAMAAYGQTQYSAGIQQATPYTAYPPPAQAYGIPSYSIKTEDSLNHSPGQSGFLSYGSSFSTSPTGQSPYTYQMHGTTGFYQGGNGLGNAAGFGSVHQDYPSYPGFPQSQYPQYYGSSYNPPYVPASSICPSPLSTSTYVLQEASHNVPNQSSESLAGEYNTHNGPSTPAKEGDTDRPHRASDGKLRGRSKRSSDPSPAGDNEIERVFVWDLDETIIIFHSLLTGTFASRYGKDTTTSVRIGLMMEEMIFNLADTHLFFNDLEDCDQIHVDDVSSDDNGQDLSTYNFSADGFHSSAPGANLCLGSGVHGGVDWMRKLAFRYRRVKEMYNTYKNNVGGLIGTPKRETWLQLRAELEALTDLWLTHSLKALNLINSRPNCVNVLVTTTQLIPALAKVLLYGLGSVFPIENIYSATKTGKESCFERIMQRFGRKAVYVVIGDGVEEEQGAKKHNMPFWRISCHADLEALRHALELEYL
Target sequence (Q15475 whole entry, looked up): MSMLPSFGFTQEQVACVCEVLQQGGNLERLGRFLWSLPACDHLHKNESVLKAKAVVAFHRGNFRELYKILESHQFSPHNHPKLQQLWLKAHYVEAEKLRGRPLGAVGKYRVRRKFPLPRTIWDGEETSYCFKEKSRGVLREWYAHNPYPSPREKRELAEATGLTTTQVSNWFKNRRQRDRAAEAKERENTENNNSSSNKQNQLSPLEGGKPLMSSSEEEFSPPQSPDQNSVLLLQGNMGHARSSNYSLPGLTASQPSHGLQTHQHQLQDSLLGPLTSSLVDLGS
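Six1/Eya2 binding was read as AlphaScreen signal after compounds were pinned into GST-Six1 plus His-tagged Eya2 (5X stock 250/500 nM) in pH 8.0 Tris/NaCl/TCEP buffer, beads added, then incubated 1 h, 37 C, dark.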
An asterisk follows results filed as active; ? = inconclusive; / = no result given; [ ] = another dose, or the depositor's remark.

SMILES	gsp antagonist	gsp ag	D2 potentiator	D2 ag	CtBP-E1A blk	Six1-Eya2 blk
COc1cccc(CNC(=O)CSc2nc(=O)n(Cc3ccncc3)c3c2CCC3)c1	-6.1%	-23.4%	-6.3	6.6	5.2	0.2
COc1cccc(NC(=O)c2ccccc2Oc2ccccc2)c1	-10.2%	-38.3%[inhibitor]	-2.9	1.0	22.6	12.3
CCCCCC1=NN2C(=O)CC(=O)N=C2S1	-2.8%	16.5%	-5.4	-5.0	4.1	-1.2
CC(CNC(=O)c1cc(COc2c(F)cccc2F)on1)c1ccccc1 (centres undefined)	-14.1%	7.4%[15.4 µM]	-11.0	4.6	9.8	17.1
CC(C)c1ccc(C2N3CC4([N+](=O)[O-])CN2CC([N+](=O)[O-])(C3)C4(C)C)cc1 (centres undefined)	-4.0%	-2.0%	-1.6	-3.1	/	-4.9
CCN1CCN(C(=O)CN(Cc2ccccc2)S(C)(=O)=O)CC1	4.4%	3.3%	-15.0	-1.6	2.0	0.3
Cc1nc(SCc2ccccc2F)c2oc3ccccc3c2n1	2.0%	10.4%[15.4 µM]	-2.8	5.2	8.0	7.2
COc1ccc(CNC(=O)C2=CC(c3ccc(OC)c(OC)c3)=NS(=O)(=O)N2C)cc1	-13.1%	?	-7.5	0.7	3.2	-0.2
CCCCC(=O)N(c1ccc(C(=O)O)cc1)c1nc(-c2ccc(Cl)cc2)c(CC)s1	1.9%	-11.7%	-0.8	4.3	/	-0.3
COc1cc2cc(CN(CCN3CCCC3)C(=O)Nc3ccccc3Cl)c(=O)[nH]c2cc1OC	8.5%	1.0%	-0.8	2.8	-9.8	-20.9
C/C(=N/NC(=O)c1ccco1)c1cccc(NC(=O)c2ccc(C)s2)c1	-3.3%	1.4%	-7.0	-2.3	-6.9	-19.5
CCC1(C)Cc2c(sc3nc(SC)n(Cc4ccccc4)c(=O)c23)CO1 (centres undefined)	-5.9%	14.4%	4.1	-4.3	0.7	6.0
CCOC(=O)c1cnc2c(c(C)nn2C)c1Oc1ccc(Cl)cc1	0.0%	18.4%	-9.1	-1.6	16.9	11.3
CC1CCCC(NC(=O)C2CCN(S(=O)(=O)N3CCOCC3)CC2)C1C (centres undefined)	7.9%	-0.8%	1.0	0.2	4.0	4.5
C/C(=N\NC(=O)C1CC1)c1cccnc1	11.9%	1.8%	-0.9	0.2	2.5	1.3
O=S(=O)(O)c1nc2ccccc2n1Cc1ccc(Cl)cc1	-24.7%	-1.7%	2.9	0.4	7.1	-3.0
CCC(=O)c1ccc(OC(=O)c2cccs2)cc1	-0.1%	15.9%	-0.8	-0.4	-5.8	?
CCC/C(O)=C1\C(=O)CCCC1=NCCc1c(C)[nH]c2ccc(OC)cc12	-22.2%	?	-4.0	-0.8	-18.7	-11.0
CC(NC(=S)NC1CCCCC1)C(c1ccccc1)N1CCOCC1 (centres undefined)	8.0%	-15.1%	-10.6	-1.5	-16.3	3.2
Cc1ccc(-c2csc3ncn(CC(=O)O)c(=O)c23)cc1C	11.6%	-9.8%	-0.7	-1.5	6.8	-1.5
CN(C)CCN(Cc1ccccc1)C(=O)[C@H](Cc1ccccc1)N1C(=O)c2ccccc2C1=O	5.0%	17.5%	-5.1	-3.4	0.1	9.0
COc1ccc(CNS(=O)(=O)c2ccc(S(=O)(=O)NC3CC3)cc2)cc1	2.4%	4.0%[15.4 µM]	4.8	-6.3	-3.4	-2.6
COc1cc(CNC(=O)c2cc(-c3ccc(OC)cc3C)n[nH]2)cc(OC)c1	/	/	-12.0	2.8	1.4	-11.1
Cn1c(=O)c(C(=O)NC2CCCCCC2)c(O)c2ccccc21	-2.5%	-25.2%	-5.1	-0.4	/	7.2
Cc1cccc(N(CC(=O)N2CCOCC2)S(C)(=O)=O)c1C	5.3%	-22.0%	-10.3	-6.9	2.6	0.9
O=C(NCc1ccco1)c1ccc2ccccc2c1	-2.5%	13.8%	-3.4	-1.0	-1.8	-5.7
COc1ccccc1CC(=O)Nc1cc(C)ccn1	4.1%	?	-8.1	-1.3	/	-9.3
COc1ccc(C(O)c2nc(-c3ccccc3OC)cs2)cc1 (centres undefined)	/	/	-4.3	-2.6	0.5	0.9
CC(=O)N1CCC(C(=O)Nc2ccc(S(=O)(=O)N3CCC(C)CC3)cc2)CC1	10.3%	-15.9%	7.7	0.3	6.3	0.8
O=C(NCc1ccc(F)cc1)c1cc(C2CCCCN2C(=O)c2ccc(Cl)cc2)on1 (centres undefined)	/	/	-5.0	4.9	-5.6	2.6

5 entries already listed, ordered by the number in gsp ag, low to high:
SMILES,gsp ag
Cn1c(=O)c(C(=O)NC2CCCCCC2)c(O)c2ccccc21,-25.2%
Cc1cccc(N(CC(=O)N2CCOCC2)S(C)(=O)=O)c1C,-22.0%
CC(NC(=S)NC1CCCCC1)C(c1ccccc1)N1CCOCC1 (centres undefined),-15.1%
Cc1ccc(-c2csc3ncn(CC(=O)O)c(=O)c23)cc1C,-9.8%
O=C(NCc1ccco1)c1ccc2ccccc2c1,13.8%

Next part:
SMILES	gsp antagonist	gsp ag	D2 potentiator	D2 ag	CtBP-E1A blk	Six1-Eya2 blk
CCOc1cccc(C2NC(=S)NC(C)=C2C(=O)Nc2ccccc2)c1 (centres undefined)	13.4%	-11.4%	-14.0	-3.4	-4.6	-8.6
COC(=O)c1scc(C)c1N/N=C(\C)c1ccc(F)cc1F	-6.7%	-8.6%	0.7	-2.4	38.8	29.7
Cc1cc([N+](=O)[O-])ccc1NC(=O)Cc1ccc(F)cc1	7.2%	12.4%	3.5	2.6	0.9	0.1
Cc1nc(-c2cccc(Cl)c2)n[nH]1	-7.4%	-21.3%	-8.1	-3.9	-2.9	4.6
O=C(COC(=O)c1ccc(O)cc1)Nc1ccc2[nH]c(=O)[nH]c2c1	11.5%	1.9%[15.4 µM]	-2.1	-2.5	2.7	-10.1
C[C@@H]1CN([C@@H](C)CO)C(=O)CCCn2nncc2CO[C@H]1CN(C)C(=O)Nc1ccccc1F	/	-29.2%	-0.3	-6.3	-5.1	1.4
CC(OC(=O)CN1C(=O)c2ccccc2C1=O)C(=O)NC1CCCC1 (centres undefined)	13.3%	0.5%[15.4 µM]	6.1	-1.5	3.6	6.6
NCCc1nnc(SCC(=O)Nc2cccc(Cl)c2)o1	4.8%	12.6%	-6.5	2.4	/	-0.7
CCCCN(C)c1c(N2CCC(C(=O)OCC)CC2)c(=O)c1=O	2.4%	0.7%	1.7	4.9	1.1	2.4
CCOc1ccc2nc(NCCO)[nH]c2c1	-3.2%	3.4%	-4.2	-4.8	0.7	-5.4
CC(=O)N/C(=C\c1ccccc1)C(=O)OC(C)C(=O)c1ccccc1 (centres undefined)	14.9%	-5.8%	-16.3	-7.2	3.4	-0.5
COc1ccccc1NS(=O)(=O)c1ccc(C(=O)NCC2(N(C)C)CCCCC2)cc1	17.6%	-19.0%	-9.6	-3.4	5.2	-1.5
O=C(NNC(=O)c1ccccc1C(F)(F)F)c1csc(N2CCOCC2)n1	28.2%	-16.0%	-11.1	-3.2	3.2	3.5
Cc1cnc(C(=O)OCC(=O)Nc2cc(S(=O)(=O)N3CCOCC3)ccc2Cl)cn1	-11.0%	-22.5%	-5.4	2.1	2.5	-1.7
COc1cc(C=C2CN(C)C(=O)C2=O)ccc1O	/	?	-12.6	-10.7	0.4	-0.9
COc1ccc(CCN(C)C(=O)CNC(=O)c2ccccc2F)cc1OC	15.0%	1.7%	-1.6	0.5	-8.3	-13.0
CCOC(=O)[C@H]1[C@H]2COc3ccc(Cl)cc3[C@@H]2N2C(=O)CN(Cc3ccc(C)cc3)C(=O)[C@@]12C	-17.6%	-1.7%	-7.5	-1.0	-10.0	-5.4
O=C(c1sc2ccccc2c1Cl)N(Cc1ccccc1)C1CCS(=O)(=O)C1 (centres undefined)	?	-0.3%	8.3	-2.1	-0.2	-0.6
CCCn1c(N)c(N(CCOC)C(=O)Cc2ccc(S(=O)(=O)N3CCOCC3)s2)c(=O)[nH]c1=O	-3.2%	14.3%	0.5	-0.3	14.9	4.3
O=C(c1cc(COc2ccc(F)cc2F)on1)N1CCSCC1	14.9%	17.2%	-0.2	4.6	4.5	-4.6
CCN1CCN(C(CNS(=O)(=O)c2ccc(C)cc2)c2cccnc2)CC1 (centres undefined)	11.5%	1.4%	-18.5	-1.4	-5.0	23.9
Cc1ccccc1-c1nnn(Cc2cccc(S(=O)(=O)N3CCOCC3)c2)n1	35.5µM*	2.9%	1.9	1.5	/	-11.5
CCCCCNC(=O)CCCCn1c(=O)[nH]c2cc(OCC)c(OCC)cc2c1=O	4.8%	25.1%	-0.1	0.8	0.0	2.9
COc1cccc(N2C(=O)[C@H]3C(C(=O)c4cnccn4)=NN[C@H]3C2=O)c1	-0.9%	-43.9%[inhibitor]	-4.1	-1.2	-1.3	-9.3
Cc1cc(C(=O)O)ccc1-n1c(C)cc(/C=C(/C#N)C(=O)Nc2ccccc2)c1C	?	-17.8%[15.4 µM]	-4.0	-1.6	-22.9	-1.0
Cc1oc(-c2cccs2)nc1CN1CCN(Cc2ccc(F)c(F)c2)C(CCO)C1 (centres undefined)	1.1%	23.0%[15.4 µM]	-6.9	-5.3	-2.7	-2.2
CCOC(=O)C1CCN(C(=O)Nc2cccc(OC)c2)CC1	-8.0%	-6.1%[15.4 µM]	-12.3	-2.8	0.3	-1.5
NC(Cc1ccc(C(F)(F)F)cc1)c1csc(Nc2nccc(C(F)(F)F)n2)n1 (centres undefined)	/	/	-1.8	5.4	-4.5	0.4
COC(=O)[C@H](Cc1ccc(O)cc1)NCCCn1cnc(C(=O)Nc2ccc(C)c(C)c2)n1	-10.7%	/	/	1.7	-9.0	-12.4
Cc1ccccc1CSCCNC(=O)COc1ccc(Cl)cc1	-6.4%	9.7%[15.4 µM]	-0.4	-1.9	3.9	-2.6
COc1ccc(N(CC(=O)N2CCCC2)S(C)(=O)=O)cc1	4.6%	4.4%[15.4 µM]	-2.9	1.3	-1.7	-11.4

A different layout for part of the listing above:
CCOC(=O)[C@H]1[C@H]2COc3ccc(Cl)cc3[C@@H]2N2C(=O)CN(Cc3ccc(C)cc3)C(=O)[C@@]12C
  gsp antagonist = -17.6%; gsp ag = -1.7%; D2 potentiator = -7.5; D2 ag = -1.0; CtBP-E1A blk = -10.0; Six1-Eya2 blk = -5.4
CCOC(=O)C1CCN(C(=O)Nc2cccc(OC)c2)CC1
  gsp antagonist = -8.0%; gsp ag = -6.1%[15.4 µM]; D2 potentiator = -12.3; D2 ag = -2.8; CtBP-E1A blk = 0.3; Six1-Eya2 blk = -1.5

Outcome played no part in choosing rows; any-hit rate near 1.4%.
